MT1-MMP act inh = inhibitors of human MT1-MMP activation; GFP/RFP ratio change, % at 20 µM; 360,000 compounds, 0.061% hits; AID 651647; HT1080 RFP-PRO-GFP cells, GFP/RFP ratio fluorescence, overnight; percent of plate control window, DMSO zero;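 active = GFP/RFP ratio change of at least 30% with cell ATP level not reduced by more than half and red fluorescence within 50% of control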; note: strong numbers were not always called active
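Material: RFP-PRO-GFP reporter HT1080 cells. Dosing: single-point 20 µM compound, 1% DMSO. Controls: DMSO and RFP-L50D-GFP cell wells. Timing: cells overnight before dosing, compound overnight, 37 °C, 5% CO2. Measure: GFP/RFP fluorescence ratio.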
PABP polyA inh = blocks human PABP binding to poly(A) RNA | 290,000 compounds, 1% hits | inhibition, % at 35 µM | P11940 | fluorescence polarization;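 active = 50% or more with normal probe brightness, or confirmed in later tests; inconclusive = above 50% with abnormal brightness, or retests that disagree; inactive = below 50% or failed in later tests; about a fifth of its hits are not listed in these tables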;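 note: calls also rest on retests at 20 µM and on dose response follow-up; controls were probe without protein and protein plus probe with vehicle; some compounds called inactive have numbers as strong as hits; many hits fall short of the cut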
Target sequence (P11940 whole entry, looked up): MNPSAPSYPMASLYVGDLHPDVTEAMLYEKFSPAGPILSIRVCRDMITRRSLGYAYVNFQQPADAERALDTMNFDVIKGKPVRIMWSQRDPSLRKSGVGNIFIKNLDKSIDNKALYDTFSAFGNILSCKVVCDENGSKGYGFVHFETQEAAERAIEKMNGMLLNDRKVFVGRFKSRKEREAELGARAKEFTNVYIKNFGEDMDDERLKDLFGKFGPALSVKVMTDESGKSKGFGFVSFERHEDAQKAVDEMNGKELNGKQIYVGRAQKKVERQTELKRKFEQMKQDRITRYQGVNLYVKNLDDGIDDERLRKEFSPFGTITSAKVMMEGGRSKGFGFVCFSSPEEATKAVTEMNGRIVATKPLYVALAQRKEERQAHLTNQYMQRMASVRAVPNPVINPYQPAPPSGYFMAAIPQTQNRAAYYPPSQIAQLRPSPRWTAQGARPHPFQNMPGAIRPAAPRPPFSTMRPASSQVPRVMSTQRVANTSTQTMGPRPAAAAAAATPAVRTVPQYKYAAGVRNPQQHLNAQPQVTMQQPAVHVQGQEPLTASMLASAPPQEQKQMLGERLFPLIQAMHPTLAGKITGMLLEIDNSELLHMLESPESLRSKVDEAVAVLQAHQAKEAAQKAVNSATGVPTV
UUG fidelity = alters start codon recognition fidelity in yeast; 350,000 compounds, 0.13% hits; activity score, % at 18.7 µM; S. cerevisiae UUG-firefly luciferase reporter, luminescence/redox ratio;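 active = replicate mean at a twofold rise or more, about +100% in these data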;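 note: firefly luciferase made from a UUG start codon reports start codon fidelity; reporter light over untreated wells divided by growth signal over untreated wells; some hits fall short of that in this replicate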
HIV Env fusion = inhibitors of HIV Env-mediated cell fusion; 360,000 compounds, 1.1% hits; AID 651610; inhibition, % at 12.3 µM; HeLa-JRFL Env/CEM21 cell fusion, luciferase;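 active = mean replicate inhibition score of at least 50 and every replicate individually at or above 50; inconclusive = only one of the two criteria met; inactive = mean below 50 and not all replicates reaching 50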;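 note: 0% = plate neutral controls and 100% = maraviroc near 300 nM; one replicate is shown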
Rce1 inhib = yeast Ras-converting enzyme inhibition; Q03530; yeast membranes, quenched prenylated peptide cleavage fluorescence; calls only; 290,000 compounds, 0.27% hits;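 active = fall in fluorescence gain of 50% or more versus controls, with final raw signal at or below 3038400; inconclusive = same 50% fall but final raw signal above 3038400; inactive = fall in fluorescence gain under 50%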;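 note: plate controls were neutral control wells for no effect and wells lacking membranes for full effect; tested at 10 µM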
Target sequence (Q03530 whole entry, looked up): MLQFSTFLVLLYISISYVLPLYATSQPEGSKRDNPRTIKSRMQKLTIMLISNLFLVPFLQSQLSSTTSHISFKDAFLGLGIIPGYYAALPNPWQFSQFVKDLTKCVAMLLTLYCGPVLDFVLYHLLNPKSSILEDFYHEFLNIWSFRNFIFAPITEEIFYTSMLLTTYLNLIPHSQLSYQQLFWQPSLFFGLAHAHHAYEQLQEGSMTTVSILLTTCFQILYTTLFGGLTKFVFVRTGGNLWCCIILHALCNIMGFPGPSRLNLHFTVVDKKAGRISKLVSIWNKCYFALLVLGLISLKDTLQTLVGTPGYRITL
CSC inhib = blocks cancer stem cells. inhibition, % at 7.5 µM. cancer stem cell-like cells viability, luminescence. 300,000 compounds, 1.1% hits. AID 2717;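 active = mean at 75% or more and at least half the replicates too; inconclusive = mean and replicates disagree; tested in HMLE shEcad cells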;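 note: 0% = median of negative and 100% = median of positive control wells; the first replicate is given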
eIF4H FP inh = inhibitors of RNA binding by human eIF4H; eIF4H fluorescence polarization binding assay; AID 2012; inhibition, % at 35 µM; 290,000 compounds, 0.94% hits;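 active = 50% or more with normal probe brightness, or confirmed in later tests; inconclusive = above 50% with abnormal brightness, or retests that disagree; inactive = below 50% or failed in later tests; about a fifth of its hits are not listed in these tables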;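 note: calls also rest on retests at 20 µM and on dose response follow-up; 0% = protein and probe with vehicle and 100% = probe without protein; strong numbers were not always called active; many hits fall short of the cut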
eIF4H FP inh retest = further read-out of eIF4H FP inh, marked with its call; inhibition, %; compound at 20 µM; confirmation average;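 mean of two retest wells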
PABP polyA inh retest = recorded beside PABP polyA inh, whose call it bears; inhibition, %; compound at 20 µM; confirmation repeats;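 mean of two retest wells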
MT1-MMP act inh RFP = second read-out of MT1-MMP act inh, no call of its own (marks repeat the call); RFP signal change, %; measured here: RFP expression control read;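 0 = vehicle wells; hits needed this value within 50% of zero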
An asterisk follows results filed as active; i = inactive; ? = inconclusive; / = no result given.

SMILES | MT1-MMP act inh | MT1-MMP act inh RFP | PABP polyA inh | UUG fidelity | HIV Env fusion | Rce1 inhib | CSC inhib | eIF4H FP inh | others
COc1cccc(-c2nnc(-c3ccccc3NC(=O)c3ccc(C(C)(C)C)cc3)o2)c1 | 1 | 0 | -5 | -9 | -11 | i | 0 | -11
CC1CCN(C(=O)COC(=O)c2cccs2)CC1 | 0 | -3 | / | -50 | 3 | / | -17 | /
O=C(COC(=O)c1ccc2ncsc2c1)Nc1cc(Cl)ccc1F | 8 | 1 | / | -21 | 3 | / | / | /
COc1cccc(/C=C/c2ccc3cccc(O)c3n2)c1 | 3 | 0 | -1 | -62 | -146 | i | 41 | 10
COc1cc(/C=C/C(=O)OCC(=O)NCCc2ccc(S(N)(=O)=O)cc2)ccc1OCC#N | 7 | -2 | / | -9 | -1 | / | / | /
COC(=O)c1cc(NC(=O)CN2CCOCC2)cc(C(=O)OC)c1 | 3 | 3 | -3 | -13 | / | i | 3 | -1
O=C1NC(Cc2c[nH]c3ccccc23)C(=O)N1Cc1ccc(CN2C(=O)NC(Cc3c[nH]c4ccccc34)C2=O)cc1 (stereo not given) | 1 | 0 | -11 | 2 | 48 | i | 12 | -1
COc1ccc(CCCC(=O)Nc2cc(C)ccc2OC)cc1 | -4 | -5 | 4 | -13 | -40 | i | 3 | 2
CCOC(=O)c1c(-c2ccc(C)o2)csc1NC(=O)CSc1ncn[nH]1 | -5 | -1 | 5 | -10 | -15 | i | 4 | 8
CCN(CC)c1ncccc1C(=O)NCc1cccs1 | -1 | -1 | 2 | / | / | i | -3 | -18
CCOC(=O)[C@@H]1[C@H]2COc3ccccc3[C@@H]2N2C(=O)N(c3ccc(Cl)cc3)C(=O)[C@]12C | 2 | -4 | -2 | 3 | / | i | 2 | -9
COCCN(C(=O)C(C)C)c1nnc(-c2cccc(C)c2)s1 | 2 | -2 | -6 | -13 | -1 | i | 6 | 5
CCOC(=O)CC(NC(=O)CCc1c(C)nc2nc(C)nn2c1C)c1ccc(C)cc1 (stereo not given) | -1 | 4 | 8 | / | -7 | i | -5 | -7
Cc1ccc(-n2nc3ccc(NC(=O)c4cccc([N+](=O)[O-])c4C)cc3n2)cc1 | 0 | -12 | 0 | / | 59 | i | 0 | -8
Fc1ccc(NC(=S)NCc2cccnc2)cc1 | 3 | 1 | 2 | / | 11 | i | -7 | -8
Cc1ccc(NC2CCCN(C(=O)c3ccc(C)c(N4CCNC4=O)c3)C2)cc1C (stereo not given) | -5 | -3 | 1 | -2 | / | i | -14 | -8
O=C(NNC(=O)c1cc(-c2ccc(Cl)cc2)nc2ccccc12)c1csc(N2CCOCC2)n1 | 6 | 0 | / | / | 1 | i | 31 | /
Cc1nc([N+](=O)[O-])c(C(=O)OCc2ccccc2Br)n1C | -3 | -7 | 0 | / | 13 | i | -10 | -3
CC(C)Oc1ccc(/C=C(\C#N)C(=O)NC2CC2)cc1 | 2 | -1 | / | -2 | 4 | i | -20 | /
C=CC[C@@H](Cc1ccc(F)cc1)C(=O)OC[C@@H]1CCCN1C(=O)[C@@H](CC=C)CC(=O)N(CCO)Cc1ccccc1 | 0 | -15 | / | 11 | 4 | / | / | /
CCN(CCCNS(=O)(=O)c1cc(-c2cc(C)no2)ccc1C)Cc1ccccc1 | -3 | -4 | 4 | -10 | 5 | i | 0 | 3
Clc1ccc(Cn2ccc3ccccc32)cn1 | 0 | 2 | 2 | -28 | 0 | i | 16 | 9
O=C(Nc1c(F)c(F)c(F)c(F)c1F)c1ccc(Br)o1 | 4 | 6 | / | -5 | 35 | / | / | /
COc1ccccc1NC(=O)NNC(=O)CN1C(=O)COc2ccccc21 | 3 | 2 | -8 | -17 | 24 | i | -22 | 1
Cc1ccc(N2CCN(/N=C/c3sccc3C)CC2)cc1 | 0 | -7 | -11 | -25 | -33 | i | -1 | 9
CSc1ncccc1C(=O)OCC(=O)N(CC(C)C)c1c(N)n(Cc2ccccc2)c(=O)[nH]c1=O | -5 | -2 | -2 | 9 | / | i | -25 | -8
CCCOc1ccc(S(=O)(=O)N2C(=O)CC(=O)N(Cc3ccc(OCC)cc3)C2=O)cc1 | / | / | ? | / | 3 | i | -2 | ?
COc1ccc(/C=C/C2=NN(Cc3ccccc3)C(=O)CC2)cc1 | 6 | -1 | -2 | / | -19 | i | -2 | 7
COc1cccc(-c2nnn(C/C(N)=N/O)n2)c1 | 2 | 8 | 13 | -7 | -9 | i | 17 | -1
CC1C(=O)N(Cc2cn(CCC3OCCCO3)nn2)CCS(=O)(=O)N1Cc1ccc(-c2ccc(Cl)nc2)cc1 (stereo not given) | 0 | -8 | / | -7 | 16 | / | / | /
CCCC(=O)Nc1ccc(Cl)c(NC(=S)NC(=O)c2ccco2)c1 | 1 | -3 | 6 | / | 4 | i | 2 | -5
O=C(NCc1ccccn1)c1cc(S(=O)(=O)N2CCN(c3ccccc3)CC2)ccc1Cl | 1 | -2 | 7 | -15 | -16 | i | -4 | 10
Cc1scc(C(=O)N/N=C/c2ccsc2)c1C | 1 | 6 | 2 | -14 | / | i | -19 | 11
Cc1ccc(C#N)c(SCC(=O)Nc2nccs2)n1 | 5 | 1 | 2 | / | -73 | i | 6 | 0
COc1ccc(S(=O)(=O)N2CCC(C(=O)NC3CCCCC3)CC2)cc1C | -2 | -2 | 8 | -5 | 13 | i | -8 | 19
COc1ccccc1NC(=O)C1CC(=O)OC1c1ccccc1 (stereo not given) | 1 | 3 | -7 | -12 | / | i | -8 | 9
COC(=O)c1cc(=O)n(Cc2cccs2)c(=Nc2ccccc2)s1 | 1 | -5 | 6 | / | -72 | i | ? | 2
Cc1ccccc1-c1nc(CN2CCC(C(=O)N3CCN(c4ccccn4)CC3)CC2)c(C)o1 | 1 | -7 | -2 | -6 | 20 | i | -3 | 3
CC1(c2ccccc2)NC(=O)N(CC(=O)N2CC(=O)Nc3ccccc32)C1=O (stereo not given) | -3 | 0 | / | / | 5 | / | -25 | /
COc1cccc(C(=O)NCc2ccc3c(c2)cc(C)n3C)c1 | 31 | 60 | 3 | / | 28 | i | -1 | 101 | eIF4H FP inh retest=-12;PABP polyA inh retest=7
O=C(O)CSc1nnc(-c2cccs2)n1-c1ccc(Cl)cc1 | 3 | 1 | -1 | -14 | -39 | i | -13 | -3
CCCCN(C(=O)c1ccc(-c2ccc(Cl)cc2)o1)c1c(N)n(CC(C)C)c(=O)[nH]c1=O | -7 | -2 | / | -17 | 3 | / | 0 | /
C/C(=N\NC(=O)c1cc(C)[nH]n1)c1cccs1 | 5 | 0 | -1 | -12 | -16 | i | 6 | 4
Cc1c(C(=O)/C=C/N(C)C)nnn1-c1ccc(Cl)cc1C#N | -41 | 0 | 2 | -3 | 16 | i | -8 | 0
COc1ccc(CN2CCCC(C(=O)c3cccc(C(F)(F)F)c3)C2)cc1O (stereo not given) | 1 | 5 | -4 | -10 | 15 | i | / | -10
CCN(CC(=O)NCc1ccc(Cl)cc1)C(=O)c1cc2ccccc2o1 | 0 | 0 | -6 | -4 | 2 | i | -12 | -17
OCc1ccc(-c2ccc3nccn3c2)cc1 | -5 | 2 | / | -13 | 4 | / | / | /
CCOc1ccc(Cl)cc1S(=O)(=O)N1CCC(C(=O)NCC2CCCO2)CC1 (stereo not given) | -2 | -3 | -6 | 2 | -1 | i | -4 | 1
COc1ccc(C2C(C(=O)NCC3CCCO3)CCC(=O)N2c2ccc3c(c2)OCO3)cc1 (stereo not given) | 3 | 5 | -10 | -5 | -9 | i | -8 | 1
Nc1nc(Cl)cc(Oc2ccc([N+](=O)[O-])cc2)n1 | 0 | 0 | -1 | -23 | -10 | i | -9 | -8

Going on with the list.
SMILES | MT1-MMP act inh | MT1-MMP act inh RFP | PABP polyA inh | UUG fidelity | HIV Env fusion | Rce1 inhib | CSC inhib | eIF4H FP inh | others
Cc1ccc(-c2ocnc2C(=O)Nc2nc(C)cs2)cc1 | 3 | 5 | -3 | -19 | -42 | i | 14 | 6
CC1CCN(CCNC(=O)C2CCCN(c3ncnc4c3nc3n4CCCCC3)C2)CC1 (stereo not given) | -1 | 6 | 0 | 0 | 10 | i | -9 | 2
FC(F)(F)c1cccc(CNC2CCN(Cc3ccccc3)CC2)c1 | 3 | 3 | 5 | -16 | -12 | i | 32 | -6
O=C(C1=C[C@@H](c2ccc(Br)cc2)C[C@@H](OCCCCO)O1)N1CCOCC1 | -1 | -1 | 3 | -11 | 8 | i | -10 | 42
CC(CN1CCCCC1)OC(=O)c1ccccc1Cl (stereo not given) | 2 | 6 | 11 | -9 | / | i | -14 | 1
O=C(c1cc(COc2ccc(F)cc2Cl)on1)N1CCN(C2CCCCC2)C(=O)C1 | 5 | -2 | 1 | 23 | 0 | i | 43 | -9
COc1cccc(C2NC(CC(C)C)(C(=O)O)C3C(=O)N(Cc4ccccc4)C(=O)C23)c1O (stereo not given) | 0 | 5 | -3 | 4 | -56 | i | 7 | -3
Cc1[nH]n(-c2ccccc2)c(=O)c1S(=O)(=O)c1ccccc1 | -1 | 0 | 0 | -11 | 7 | i | / | -2
COc1ccc(CNC(=O)CN2C(=O)C3C4C=CC(C4)C3C2=O)cc1 (stereo not given) | 0 | 2 | 0 | / | 24 | / | -2 | -5
O=C(COc1ccccc1)NC1CCN(Cc2ccccc2)CC1 | 2 | 2 | -5 | / | -34 | i | 0 | -2
Cc1ccc(C)c(C(=O)OCC(=O)NC(=O)NCc2ccccc2)c1 | -2 | -2 | / | -11 | -20 | / | / | /
CCN(C[C@H]1N[C@@](CC)(C(=O)OC)[C@H]2C(=O)N(Cc3ccccc3)C(=O)[C@@H]12)C(=O)c1ccc(F)cc1 | 2 | 0 | / | 3 | 56* | / | -12 | /
COc1cc(/C=C(\C#N)C(=O)NCC2CCCO2)ccc1OCC(=O)O (stereo not given) | -1 | -2 | 2 | -23 | -3 | i | 12 | -8
CC(=O)c1cccc(NC(=O)NCCc2c[nH]c3ccccc23)c1 | 2 | -7 | 19 | / | 17 | i | -1 | -9
Cc1ccccc1CNS(=O)(=O)c1c(C(=O)N2CCCC2)c(C)n(C)c1C | 3 | 8 | 13 | 6 | 0 | i | -10 | 5
COc1ccc(C(=O)c2coc3ccc(O)c(CN4CCOCC4)c23)cc1 | -7 | 0 | 1 | -10 | 18 | i | -4 | -9
O=C(c1cc(COc2cccc(C(F)(F)F)c2)on1)N1CCC(Oc2cccnc2)CC1 | 3 | -18 | 5 | -3 | 31 | i | 18 | -3
Cc1cc(S(=O)(=O)N2CCOCC2)c(C)s1 | -4 | 4 | 6 | -1 | 4 | i | 0 | -6
COC(=O)c1ccc(NC(=O)c2ccc3c(c2)OCO3)cc1 | 13 | 1 | -1 | -16 | -57 | i | 7 | 12
Cc1ccc(C2=NN(C(=S)Nc3ccccc3)C(c3ccco3)C2)cc1 (stereo not given) | -2 | 5 | 3 | -19 | / | i | -7 | 0
O=C(Cc1csc(NC(=O)Nc2cccc(Cl)c2)n1)NCc1cccnc1 | 1 | -4 | / | -21 | -8 | i | / | /

From PubChem BioAssay
